CtBP-E1A blk – inhibitors of CtBP/E1A interaction; AlphaScreen GST-E1A/His-CtBP binding, 1536-well; hits give low values; control for the full effect not named in the record; activity change, % (no concentration beside the values); actives 0.49% (n = 340,000); AID 651724; in the data active means activity change below about -65%; inconclusive means about -30% to -65%; inactive means above about -30%; further: on the % scale 0 is the no-effect control and ±100 the full control effect; compound concentration not given in the record
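GST-E1A and His-tagged CtBP (125 nM each as 5X stock) were preincubated with pin-transferred compound for 2 h at 37 °C in the dark, then glutathione donor and nickel acceptor beads were added for 1 h before AlphaScreen reading.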
D2 ag – agonists of human D2 dopamine receptor (beta-arrestin) | activation, % (concentration not given with the values) | P14416 | actives 0.084% (n = 360,000) | DiscoveRx PathHunter D2 beta-arrestin, luminescence, 90 min; 100% = 57 uM dopamine signal; in the data active = activation above about 40%; inconclusive = about 15% to 40%; inactive = below about 15%; further: compound concentration not given in the record; the text of the record calls up to 30% inactive
Target sequence (P14416 whole entry, looked up): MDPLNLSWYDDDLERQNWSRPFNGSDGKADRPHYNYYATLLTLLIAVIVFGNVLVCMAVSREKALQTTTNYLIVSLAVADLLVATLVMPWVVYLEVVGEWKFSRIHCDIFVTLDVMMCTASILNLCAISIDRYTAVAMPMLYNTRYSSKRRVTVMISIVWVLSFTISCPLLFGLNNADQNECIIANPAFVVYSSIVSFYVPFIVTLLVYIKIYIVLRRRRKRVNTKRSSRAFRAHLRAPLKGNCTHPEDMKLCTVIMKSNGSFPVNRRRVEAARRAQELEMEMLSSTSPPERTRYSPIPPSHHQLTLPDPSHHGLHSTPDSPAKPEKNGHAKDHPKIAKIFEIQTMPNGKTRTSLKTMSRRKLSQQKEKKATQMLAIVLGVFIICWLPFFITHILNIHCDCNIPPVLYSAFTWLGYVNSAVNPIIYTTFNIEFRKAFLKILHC
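Agonist mode: compounds alone added to overnight-plated D2 PathHunter cells for 90 min at 37 C, with 57 uM final dopamine (EC100) defining full response. Beta-arrestin recruitment detected by chemiluminescent reagent, read after 1 h at ambient temperature.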
gsp antag – antagonizes gsp, the McCune-Albright syndrome mutation; actives 0.4% (n = 340,000); gsp-mutant cells, cAMP HTRF, 30 min; control for the full effect not named in the record; Potency, µM (series often up to 76.9 µM), for the others: top-dose activity change, negative = inhibition, actives largely listed as inhibitors; active = falling curve of any shape with a large fitted effect; inconclusive = falling curve, mostly with a smaller effect; inactive = flat or rising curve; cell line not stated here;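 further: intracellular cAMP measured with PDE inhibitor Ro 20-1724 present during compound exposure; potency means the concentration at half of the fitted maximal effect; on the % scale 0 is the no-effect control and ±100 the full control effect; nearly all actives have a fitted effect of over 65% in size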
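Cells, 2000/well, grown 16–24 h in DMEM 10% FBS with 0.5 mg/ml G418, then compounds plus […] (300 uM addition stock), 30 min at 37C. cAMP read by HTRF (cAMP-d2 and anti-cAMP antibody-K in lysis buffer) after 30 min RT.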
D2 PAM – potentiates the human D2 dopamine receptor allosterically; P14416; DiscoveRx D2 beta-arrestin cells, luminescence, 90 min; 100% = 57 uM dopamine signal; potentiation, % (no concentration beside the values); actives 0.23% (n = 360,000); AID 624464; active = potentiation of 50% or more; inconclusive = 30% to 50%; inactive = 30% or less;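 further: compound concentration not given in the record; tested on top of an EC20 dose of dopamine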
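PathHunter beta-arrestin assay in DiscoveRx D2 cells. Compounds were added with an EC20 of dopamine (50 nM final) for 90 min at 37 deg C. Luminescence was read 1 h after detection reagent, with 57 uM dopamine as the EC100 control.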
gsp ag – activates gsp, the McCune-Albright syndrome mutation; gsp mutant cells, cAMP HTRF, 30 min; control for the full effect not named in the record; Potency, µM (highest dose often 76.9 µM), for inactives: at the top dose activation (cAMP increase), actives largely listed as activators; actives 0.13% (n = 340,000); active = well fitted activation curve with a large enough effect; inconclusive = small, poorly fitted or top-dose-only effect, or another doubt; inactive = no such curve, though single readings can be large or run the other way; cell line not stated here;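 further: phosphodiesterase inhibitor Ro 20-1724 added with compounds to block cAMP breakdown; potency means the concentration at half of the fitted maximal effect; nearly all actives have a fitted effect of over 60% in size; about a fifth of the inactives were tested at one dose only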
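Cells stably selected in G418 were plated at 2000/well, grown 16-24 hr, then given compounds in DMSO with the PDE inhibitor […] (300 uM solution added) for 30 min at 37C; cAMP was read by HTRF.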
Six1-Eya2 blk – blocks human Six1 binding to Eya2; Q15475+O00167; AlphaScreen GST-Six1/His-Eya2 binding, biochemical; hits give low values; control for the full effect not named in the record; activity change, % (test concentration not listed); actives 0.56% (n = 360,000); AID 651725; in the data active = activity change below about -65%; inconclusive = about -30% to -65%; inactive = above about -30%; further: on the % scale 0 is the no-effect control and ±100 the full control effect; compound concentration not given in the record
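Six1/Eya2 binding was read as AlphaScreen signal after compounds were pinned into GST-Six1 plus His-tagged Eya2 (5X stock 250/500 nM) in pH 8.0 Tris/NaCl/TCEP buffer, beads added, then incubated 1 h, 37 C, dark.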
Active calls of the source: *; u = inconclusive; x = no result given; [ ] = remark or other dose.

| molecule | CtBP-E1A blk | D2 ag | gsp antag | D2 PAM | gsp ag | Six1-Eya2 blk |
| --- | --- | --- | --- | --- | --- | --- |
| CC(=O)Nc1ccc(NC(=O)C(C)OC(=O)CC2CCCCC2)cc1 (configuration not stated) | -2.5 | -2.5 | 2.0% | -13.2 | 8.5% | 3.5 |
| Cn1nc(CC(=O)Nc2ccc(N3CCN(C(=O)OC(C)(C)C)CC3)cc2)c2ccccc2c1=O | 12.6 | -1.9 | u | -13.9 | 21.0% | 6.6 |
| COC(=O)c1cccc(NC(=O)CC2C(=O)NCCN2C(=O)Nc2ccccc2)c1 (configuration not stated) | 10.3 | 1.2 | 4.7% | -15.3 | 4.1%[15.4 µM] | 4.0 |
| COCCOC(=O)C1=C(N)Oc2c(oc(CO)cc2=O)C1c1ccccc1F (configuration not stated) | -2.8 | -1.8 | 3.6% | -9.1 | -0.2% | -0.5 |
| CCOC(=O)C1CCCN(S(=O)(=O)c2nc3nc(C)cc(C)n3n2)C1 (configuration not stated) | -0.9 | -1.2 | 4.0% | -12.8 | -2.4%[15.4 µM] | 9.2 |
| COc1ccc(C(=O)NCc2nnc(SCC(=O)Nc3nnc(C)s3)o2)cc1 | u | -3.6 | -6.1% | -9.4 | -71.0%[inhibitor] | -3.1 |
| COc1ccc(C(=O)OC(COc2ccccc2)Cn2ccnc2)cc1 (configuration not stated) | -0.5 | -2.2 | -4.9% | 4.8 | 0.0% | -12.5 |
| Cc1cc(C)c2ccc(=O)n(CC(=O)N/N=C/c3ccccc3Cl)c2n1 | 5.5 | 0.7 | 8.9% | -9.8 | 7.4%[15.4 µM] | -5.7 |
| Cc1nnc(SCC(=O)N2CCN(S(=O)(=O)c3ccccc3)CC2)[nH]c1=O | -0.2 | -5.3 | -1.1% | -13.7 | 6.5% | -4.5 |
| CC(C(=O)c1ccc(-c2ccccc2)cc1)[n+]1cccc(C(N)=O)c1 (configuration not stated) | 4.9 | -1.4 | 4.1% | -11.4 | -2.2%[15.4 µM] | -2.7 |
| Cc1nnc2c(NC3CCCCC3)nc3ccccc3n12 | x | -3.1 | 7.1% | -12.7 | -46.2%[inhibitor] | 7.8 |
| CCOCC(=O)Nc1cccc(SC)c1 | -3.8 | -6.9 | 4.1% | -5.5 | 0.0%[15.4 µM] | -0.1 |
| Cc1[nH]c2ccc(C(=O)N3CCN(Cc4ccccc4)CC3)cc2c1C | 2.0 | 0.8 | -24.0% | -19.0 | 2.8% | 17.2 |
| Cc1ccc(-n2c(=O)c3sccc3n(CC(=O)NCc3ccco3)c2=O)cc1F | 2.9 | -2.7 | 1.9% | -14.2 | 19.2% | 3.8 |
| Cc1cccc(C(=S)N2CCOCC2)n1 | 1.2 | 4.0 | -2.4% | -2.4 | -7.2% | -2.3 |
| Cc1cc(N)n(-c2ccc3ccccc3c2)n1 | 0.6 | -0.7 | 1.3% | -8.1 | -92.6%[inhibitor] | -2.1 |
| COc1ccc(NC(=O)c2ccc(NC(=O)C3CC3)cc2)cc1 | 8.3 | -0.4 | u | -5.2 | u | 11.9 |
| Cc1nn(-c2nnc(NCc3ccccc3)nn2)c(C)c1Br | -7.5 | 4.3 | 19.1% | 8.7 | 10.1% | -8.2 |
| CCn1c(SCc2nc(-c3ccccc3)no2)nnc1-c1cccs1 | -3.9 | -2.8 | -18.8% | -15.7 | 9.0% | -0.4 |
| CCCCOc1ccc(C(=O)Nc2ccc(N3CCN(C)CC3)cc2)cc1 | 3.1 | -1.4 | 6.8% | -25.3 | -17.3% | -5.6 |
| Cc1nn(C(C)C(=O)O)c(=O)c2c1sc1ccccc12 (configuration not stated) | -3.4 | -2.8 | 7.0% | -8.5 | u | 2.2 |
| C=CCc1cccc(/C=N/NC(=O)CNc2ccccc2OC)c1O | u | -0.3 | -10.5% | -5.9 | u | -26.9 |
| COc1ccc(/C=N/NC(=O)c2ccc(C)nc2)cc1O | -22.4 | 6.4 | 5.3% | -3.1 | u | -11.1 |
| COc1ccc(NS(=O)(=O)c2ccc3c(c2)N(C(C)=O)CCO3)cc1 | x | 0.4 | -6.0% | -11.0 | 5.9% | -1.7 |
| CCN1CCn2c3c(c4cc(Cl)ccc42)CCCC31 (configuration not stated) | -17.0 | -0.8 | -7.8% | -7.4 | 12.9% | -23.1 |
| CCC(OC(=O)C1=Cc2ccccc2OC1)C(=O)NC1CCCC1 (configuration not stated) | -2.4 | -0.1 | -7.9% | -0.3 | 2.3% | 3.6 |
| Clc1nc(Cl)nc(NCCC2=CCCCC2)n1 | 8.1 | 2.5 | 9.1% | 1.7 | 0.9% | 3.6 |
| CCOc1ccc(N2C(=O)c3cccnc3C2Nc2ccc(F)cc2)cc1 (configuration not stated) | -1.5 | -2.8 | 3.2% | -9.5 | 15.5% | 0.5 |
| Cc1nc(N2CCC(C)CC2)c2c(C)c(C(=O)Nc3ccccc3C(F)(F)F)sc2n1 | -1.5 | 1.1 | -17.9% | -13.5 | 2.9% | 4.0 |
| CCn1c(=O)cc(OCC(=O)NCCCN2CCCC2=O)c2ccccc21 | -14.9 | 1.4 | 7.6% | -8.5 | -0.7% | -0.3 |
| CC12CCC(O)CC1=CCC1C2CCC2(C)C(c3ccn[nH]3)CCC12 (configuration not stated) | 8.5 | 2.1 | -10.6% | -4.8 | 7.1% | -1.5 |
| CC(=O)CN1C(=O)NC(c2ccccc2)(c2ccccc2)C1=O | 4.0 | -0.8 | -0.2% | -2.5 | -2.6%[15.4 µM] | 3.4 |
| CC(=O)c1cccc(NC(=O)C(Sc2ncnc3ccccc23)c2ccccc2)c1 (configuration not stated) | 0.8 | -5.2 | -11.8% | -5.7 | -10.1%[15.4 µM] | -8.5 |
| CN1CCN(c2ccc(C(F)(F)F)cc2NC(=O)c2ccco2)CC1 | -2.1 | -3.9 | 5.1% | -14.5 | 8.4% | -1.9 |
| CC(=O)NNC(=S)NC(=O)C(c1ccccc1)c1ccccc1 | -21.6 | 0.6 | 1.7% | -7.5 | -18.0% | -5.0 |
| CC1=C(C(=O)OC(C)C)C(c2ccc(F)cc2)NC(=O)N1 (configuration not stated) | 6.2 | 2.1 | 9.4% | 3.4 | -0.5% | 5.0 |
| Cc1ccc(S(=O)(=O)N2CCC(C(=O)N[C@@H](C)C(=O)NCc3ccco3)CC2)cc1 | -1.8 | -3.8 | 14.0% | -15.0 | u | -1.3 |
| CC(=O)Nc1ccc(S(=O)(=O)Nc2c(C)nn(-c3ccccc3)c2C)cc1 | 9.4 | -2.5 | -20.1% | 0.6 | -3.1% | -1.6 |
| CSc1ncccc1C(=O)NCC(c1cccs1)N1CCOCC1 (configuration not stated) | 3.8 | -4.0 | -20.8% | -8.8 | -6.7%[15.4 µM] | 10.0 |
| CC(C)(C)C(=O)Nc1ccc(C(=O)N/N=C/c2ccccc2OC(=O)c2ccccc2)cc1 | u | 0.7 | -2.2% | 8.5 | 7.2% | -15.4 |

Single entries from the results shown:
CtBP-E1A blk result of CC12CCC(O)CC1=CCC1C2CCC2(C)C(c3ccn[nH]3)CCC12 (configuration not stated) stands at 8.5
D2 PAM result of CCN1CCn2c3c(c4cc(Cl)ccc42)CCCC31 (configuration not stated) stands at -7.4
gsp ag result of CC(=O)Nc1ccc(S(=O)(=O)Nc2c(C)nn(-c3ccccc3)c2C)cc1 stands at -3.1%

Further structures.
| molecule | CtBP-E1A blk | D2 ag | gsp antag | D2 PAM | gsp ag | Six1-Eya2 blk |
| --- | --- | --- | --- | --- | --- | --- |
| CC(=O)c1ccc(NC(=O)c2cccc(S(=O)(=O)N3CCN(C)CC3)c2)cc1 | 2.2 | -1.8 | -0.3% | -5.8 | 6.0%[15.4 µM] | 1.8 |
| CCOC1(c2ccccc2)CC1C(=O)N/N=C/c1cccc([N+](=O)[O-])c1 (configuration not stated) | -2.2 | -1.6 | u | -4.9 | -4.0% | -10.7 |
| CC(C)C[C@H](NC(=O)[C@@H]1Cc2c([nH]c3ccccc23)C2c3ccccc3C(=O)N21)C(=O)NCC1CCCO1 (some centres not stated) | 0.4 | -3.2 | -9.9% | -0.8 | x | -8.4 |
| Cn1nc(-c2ccccc2F)c2cc(C(=O)N3CCN(C(=O)c4ccco4)CC3)sc21 | 10.6 | 0.6 | u | -1.4 | 6.7% | 3.6 |
| CC(C)c1ccc(/C=C/C(=O)NC2CCCCC2)cc1 | 8.5 | -2.8 | 1.8% | -4.3 | -14.2% | 5.6 |
| COCCCN=Cc1c(-c2ccccc2)[nH]n(-c2nc3ccccc3s2)c1=O | -11.0 | -1.2 | u | 0.2 | -10.8%[15.4 µM] | 0.7 |
| CCc1cc(C(=O)NNC(=S)NC(C)c2ccccc2)cs1 (configuration not stated) | 4.2 | -4.1 | -2.7% | -14.7 | 3.0% | 1.6 |
| CC(C)(C)c1ccc(S(=O)(=O)CC(O)CSc2nc3c(cc2C#N)CCCC3)cc1 (configuration not stated) | 2.6 | -8.9 | -8.4% | -5.9 | 3.0%[15.4 µM] | 1.0 |
| Clc1cccc(COn2c(-c3ccc(Cl)cc3Cl)nc3ncccc32)c1 | -14.0 | -3.3 | -14.0% | -10.9 | u | -1.6 |
| COc1cccc(NC(=O)N2CCCCCC2)c1 | 6.1 | 2.1 | 8.9% | -5.2 | -0.9% | 4.1 |
| O=C1CCCc2oc3c(c21)CCCC3 | 0.0 | -6.7 | 5.3% | 2.7 | 10.0%[15.4 µM] | 11.7 |
| CCOc1ccc(NC(=O)CN(C)C(=O)c2ccc(COc3ccccc3)o2)cc1OCC | -2.5 | 0.4 | 1.8% | 2.7 | -10.3% | -5.0 |
| O=C(CCN1CCN(c2ccccc2F)CC1)c1ccc(Br)cc1 | -0.5 | 0.9 | -3.9% | -12.6 | 7.7% | -4.5 |
| CCOC(=O)c1nc(N)sc1C(=O)OCC | -7.8 | 0.2 | 0.5%[15.4 µM] | -21.0 | 0.2% | 4.6 |
| Cc1nc(-c2c(C(F)(F)F)noc2-c2ccc(O)cc2O)cs1 | -10.4 | 0.2 | -7.2% | 20.4 | 0.1% | -9.7 |
| OC[C@H]1O[C@@H](n2cnc3c(NC4CCCC4)ncnc32)[C@H](O)[C@@H]1O | 8.4 | 5.2 | 3.1% | -6.2 | x | -1.1 |
| O=C(Cc1ccccc1)NCCC1=CCCCC1 | 2.4 | 0.5 | 8.7% | -3.1 | -22.9% | 2.7 |
| CC1CN(C(=O)CCNS(=O)(=O)c2ccc(Br)cc2)CC(C)O1 (configuration not stated) | 5.0 | 1.8 | 6.7% | 12.1 | 13.4% | -0.2 |

Bioassay records: PubChem BioAssay, National Center for Advancing Translational Sciences (NCATS)
